Compound activity deposited in PubChem by GNF / Scripps  Winzeler lab.
P. yoelii liver: Plasmodium liver-stage growth inhibition, dose response, imaging, Malaria Box, P. yoelii, HepG2-A16-CD81EGFP (AID 602156); actives 4.8% (n = 5,700); calls after a first round at 10 µM; hits with a dose series show IC50 in µM; P. yoelii liver stage in HepG2-A16-CD81EGFP, imaging; first-round cut-off not given here; in the data active = a potency from the dose series;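 note: infected cells exposed to compound for 48 hours before fixation; stained parasite area by imaging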
Numbers without * were called inactive; i = inactive.

SMILES,P. yoelii liver
c1ccc(-c2cc(N3CCN(c4ccccn4)CC3)nc(-c3ccccn3)n2)nc1,0.0175µM*
O=C1NN(c2ccccc2)C(=O)C1=C1C(=O)N(Cc2cccc3ccccc23)c2ccccc21,i
COc1cc2c(cc1OC)C(COc1ccc(F)cc1)N(C(=O)c1ccc(OC(C)C)cc1)CC2 (stereo not given),i
CSc1nnc(NC(=O)C2CC2)s1,i
CCc1ccccc1N1C(=O)CN(Cc2ccccc2)C1=S,i
CCOC(=O)C1=C(C)NC2=C(C(=O)C(C(=O)OC)C(C)C2)C1c1cc(Br)c(OC)c(OCC)c1 (stereo not given),i
CN1CCN(c2nc(NN=Cc3cccc(Cl)c3)nc(Nc3ccc([N+](=O)[O-])cc3)n2)CC1,i
COC(=O)c1sc(-c2ccccc2)cc1NC(=O)c1ccc(S(=O)(=O)N2CCCCCC2)cc1,i
CCn1c(SCC(=O)NCCc2ccccc2)nc2sc3c(c2c1=O)CCN(C)C3,i
CCCCc1c(C)[nH]c2c(OC)cccc2c1=O,0.561µM*
CCc1ccc(C(=O)Oc2ccccc2-c2nc3cc(C)ccn3c2NC(C)(C)CC(C)(C)C)cc1,i
COc1cc(C(=O)OCCC2CCC[N+]3(C)CCCCC23)cc(OC)c1OC (stereo not given),i
Cc1ccccc1/C=C1/SC(=Nc2ccccc2)NC1=O,i
Cc1nc([P+](c2ccccc2)(c2ccccc2)c2ccccc2)c(SCc2ccccc2)o1,0.0335µM*
COC(=O)c1c(S(=O)(=O)NCCN(C)C)sc2c1CCN(CC(C)c1ccccc1)C2 (stereo not given),i
CC(C)CNc1nc(NCCCN(C)C)ncc1C(=O)NCc1ccccc1,i
CCN1/C(=C/c2cccc[n+]2C)C=Cc2ccc(C)cc21,i
COC(=O)C1=C(C)NC2=C(C(=O)CC(c3ccc(OC)c(OC)c3)C2)C1c1ccc([N+](=O)[O-])cc1 (stereo not given),i
COc1ccccc1CN1CCC(S(=O)(=O)c2ccccc2)CC1,i
Cc1ccn2c(NC(C)(C)CC(C)(C)C)c(-c3ccccc3OC(=O)c3ccc4ccccc4c3)nc2c1,i
CN1/C(=C/c2cccc[n+]2C)C=Cc2ccccc21,i
CCCCNC(=O)C(c1cccc(OC)c1)N1C(=O)c2cc(OCCc3cccc(OC)c3)ccc2NC(=O)C1CO (stereo not given),i
CC(C)(C)CC(C)(C)Nc1c(-c2ccccc2OC(=O)c2cccc(Cl)c2)nc2ccccn12,i
CCN(c1ccc(F)cc1)S(=O)(=O)c1ccc2[nH]cc(C(=O)NCCC(C)C)c(=O)c2c1,i
CCc1n(CC(=O)c2ccc(Br)cc2)c2ccccc2[n+]1C,i
COc1ccc(N=C2NC(=O)/C(=C\c3ccc(N(C)C)cc3)S2)cc1,i
COc1cc([N+](=O)[O-])ccc1NC(=O)CN1CCN(C(=O)c2ccco2)CC1,i
CCOC(=O)c1cnc2ccc(Cl)cc2c1NCCCN(C)C,i
CCOC(=O)N1CCN(S(=O)(=O)c2ccc(C(=O)Nc3sc4c(c3C(N)=O)CCN(CC)C4)cc2)CC1,i
CCOC(=O)CCC(=O)N(C)CCCNc1ccnc2cc(Cl)ccc12,i
Oc1ccccc1C=NNc1nnc2c3ccccc3n(Cc3ccccc3)c2n1,i
COc1cc(/C=C2\CC/C(=C\c3cc(OC)c(OC)c(OC)c3)C2=O)cc(OC)c1OC,i
CC(C)(C)C(=O)NCCNc1ccc([N+](=O)[O-])cc1C(F)(F)F,i
Cc1cnc(CNc2cc(-c3ccccn3)nc(-c3ccccn3)n2)nc1,i
CCN1C(=Cc2ccc3ccccc3[n+]2CC)Sc2ccc(O)cc21,i
Cc1ccc(N=Nc2nc3ccccc3n2C)c(C)c1,i
O=C(C1CC1)N1CCOc2c(cc(-c3csc4ccccc34)cc2OCCc2ccccn2)C1,i
CCOc1ccc(N2C(=O)c3ccccc3NC2(C)C)cc1,i
COc1cc(C2CC(=O)NC3=C2C(=O)CC(c2ccccc2Cl)C3)ccc1O (stereo not given),i
Cc1ccc(C)c(NC(=O)c2c(-c3c(Cl)cccc3Cl)noc2C)c1,i
Cc1nc(-c2nc3c(s2)CN(C(=O)c2ccncc2)CC3)cs1,i
c1ccc2cc3c(NCCN4CCOCC4)ccnc3cc2c1,i
O=C(c1cccc(F)c1)N1CCN(Cc2ccncc2)CC1,i
O=c1[nH]cnc2c1C(c1ccccc1)c1c(nc[nH]c1=O)O2,i
COc1ccc(C(c2ccc(N(C)C)cc2)c2ccc(N(C)C)cc2)cc1,i
Nc1nc(N)c2cc(S(=O)(=O)N3CCOCC3)ccc2n1,i
CCC(C)(C)C1CCc2c(sc(NC(=O)c3ccc(F)cc3)c2C(N)=O)C1 (stereo not given),i
COc1ccc(OCC(=O)Nc2c(C)n(C)n(-c3ccccc3)c2=O)cc1,i
CC(=O)Nc1ccc(-c2nc3c4cc(I)ccc4c4ccccc4c3[nH]2)cc1,i
CN(C)c1ccc(C=C2SC(=Nc3ccccc3)NC2=O)cc1,i

(further entries)
SMILES,P. yoelii liver
NC(=NOC(=O)c1ccccc1I)c1ccccn1,i
COc1ccc(NC(=O)C=Cc2ccccc2Cl)cc1,i
CCOC(=O)c1cn(CC)c2cc(N3CCCCC3)c(F)cc2c1=O,i
C=CCNC(=O)c1cc2c(=O)n3ccccc3nc2n(CCc2ccccc2)c1=N,i
c1ccc2c(c1)[nH]c1ccc3ccncc3c12,i
COC(=O)c1sc2nc(CN3CCC(C)CC3)ccc2c1NC(=O)c1ccc(C)s1,i
COc1cc(-c2nc(-c3ccc(C)c(C)c3)c(-c3ccc(C)c(C)c3)[nH]2)cc(OC)c1O,i
O=C(O)CS(=O)(=O)c1ccc(C(=O)NCC(c2cccnc2)N2CCOCC2)cn1 (stereo not given),i
COC(=O)C1CCN(C(=O)COC(c2ccccc2)c2cccnc2Cl)CC1 (stereo not given),i
CS(=O)(=O)N1CCCCC1C(=O)NCc1ccc(OC2CCN(CC(c3ccccc3)c3ccccc3)CC2)cc1 (stereo not given),i

Four entries from above in a different format:
> CCc1n(CC(=O)c2ccc(Br)cc2)c2ccccc2[n+]1C
  P. yoelii liver: i
> COc1ccc(N=C2NC(=O)/C(=C\c3ccc(N(C)C)cc3)S2)cc1
  P. yoelii liver: i
> COc1cc([N+](=O)[O-])ccc1NC(=O)CN1CCN(C(=O)c2ccco2)CC1
  P. yoelii liver: i
> CCOC(=O)c1cnc2ccc(Cl)cc2c1NCCCN(C)C
  P. yoelii liver: i

Next records.
SMILES,P. yoelii liver
CC1CN(C(=O)C(Cc2c[nH]c3ccccc23)NC(=O)C(c2ccccc2)c2ccccc2)CCN1C(=O)NCc1ccccc1 (stereo not given),i
COc1cccc(OC)c1C(=O)NCCCCNc1ccnc2cc(Cl)ccc12,i
CC(OC(=O)c1ccccc1N1C(=O)C2C3C=CC(C4CC34)C2C1=O)C(=O)c1ccccc1 (stereo not given),i
COc1ccc(Nc2nc3nonc3nc2NN=Cc2cc(Cl)ccc2O)cc1,i
CCN1CCN(CCCNC(=S)Nc2ccc3nc(N4CCCC4)cc(C)c3c2)CC1,i
OCCSc1nc(-c2ccccc2)nc2ccc(F)cc12,i
CCCOC(=O)C1=C(C)NC2=C(C(=O)CC(c3ccc(OC)c(OC)c3)C2)C1c1cccc(Cl)c1Cl (stereo not given),i
O=C(Nc1ccc(C2=NCCN2)cc1)Nc1cc(C(=O)Nc2ccc(C3=NCCN3)cc2)ccc1C(=O)Nc1ccc(C2=NCCN2)cc1,i
CCN(CC)c1ccc2nc3c4ccccc4c(=[N+](CC)CC)cc-3oc2c1,i
O=C(c1ccc([N+](=O)[O-])cc1)C1C(C(=O)c2ccc(F)cc2)C2(C(=O)Nc3ccccc32)C2C=Cc3ccccc3N12 (stereo not given),i

2 records picked at random from the list so far:
SMILES,P. yoelii liver
O=C(c1ccc([N+](=O)[O-])cc1)C1C(C(=O)c2ccc(F)cc2)C2(C(=O)Nc3ccccc32)C2C=Cc3ccccc3N12 (stereo not given),i
CCN1CCN(CCCNC(=S)Nc2ccc3nc(N4CCCC4)cc(C)c3c2)CC1,i

Continued:
SMILES,P. yoelii liver
Cc1ccc(C)c(Nc2nc(NCc3ccccc3)c3ccccc3n2)c1,i
COc1cc(C(=O)N2CCN(Cc3cccc(Br)c3)CC2)cc(OC)c1OC,i
CCOC(=O)c1cnc2c(C)cc(C)cc2c1Nc1ccc(OC)c(OC)c1,i
COc1ccc(CN2CCc3nc(N4CCCCC4)sc3C2)cc1,i
COC(=O)c1sc2nc(CN3CCCC(C)C3)ccc2c1NC(=O)c1ccc(C)s1 (stereo not given),i
O=C(CCCn1c(SCc2ccccc2F)nc2ccccc2c1=O)N1CCCC1,i
CC(C)(C)c1ccc2c(c1)CN(C1CCCCC1)CO2,i
COc1ccccc1N1C(=N)S/C(=C\c2ccc(OCc3ccccc3F)cc2)C1=O,i
COc1cc2nc(NCCN3CCOCC3)n3nc(-c4ccccc4)nc3c2cc1OC,i
O=C(NCc1n[nH]c(=S)n1-c1ccc(Br)cc1)c1cccc2ccccc12,i
Cc1c(C(=O)N2CCC3(CCN(C)C3)C2)cnn1-c1ncc2c(n1)-c1ccccc1SC2 (stereo not given),i
COc1nc(Nc2ccc(C(C)C)cc2)nc(OC)n1,i
COc1ccccc1/C=C/CN1CCN(c2ccccn2)CC1,i
CCCCN(CCCC)S(=O)(=O)c1cc(Br)cc2c1N(C(C)=O)CC2,i
C[n+]1oc(/C=C/c2ccccc2)cc1/C=C/c1ccccc1,i
CCn1c(SCCCCNC(=O)c2cc([N+](=O)[O-])cc([N+](=O)[O-])c2)nc(-c2ccccc2)c1-c1ccccc1,i
O=C(CSc1nc2ccccc2c(=O)n1-c1ccc(C(=O)N2CCOCC2)cc1)c1ccccc1,i
CC(C)(C)NC(=O)C(c1ccc(F)cc1)N(CCCN1CCOCC1)C(=O)c1ccc(-c2ccccc2)[nH]1 (stereo not given),i
CC(C)c1ccc(NC(=O)C=Cc2ccccc2Cl)cc1,i
Cc1ccc(CSCc2ccc(C(=O)NC3CC3)o2)cc1,0.0473µM*
Cc1cc(C)cc(NC(=O)CCCn2c3ccccc3c(=O)c3cc(C)ccc32)c1,i
CC(C)NCC(O)c1ccc2ccccc2c1 (stereo not given),i
CC(C)CNC(=O)c1cnc(NCCCN2CCCCC2C)nc1NCCc1ccccc1 (stereo not given),i
CCOC(=O)C1=CN(C)C=C(C(=O)OCC)C1c1cc(Br)c(OCC)c(OC)c1,i
Cn1c(C(C#N)C(=S)NC2CCCCC2)nc2cccnc21 (stereo not given),i
Clc1ccccc1CN1CCc2nc(N3CCCCC3)sc2C1,i
CCN(CC)CCCN(Cc1cc2c(C)cc(C)cc2[nH]c1=O)C(=S)NCCCN(C)C,i
CN(C(=O)CCNC(=O)Cn1cnc2ccccc2c1=O)C1CCCCC1,i
COc1cc(NC(C)CCCN(Cc2ccc(N(C)C)cc2)S(=O)(=O)c2cccc3ccccc23)c2ncccc2c1 (stereo not given),i
Cc1ccccc1Cn1c(C)c[n+]2ccsc12,i
Cc1ccc(-n2c(=S)sc3c(=O)n(-c4ccccc4)c(SCC(=O)c4ccccc4)nc32)cc1C,i
CCCc1c(C)[nH]c2ccc(C)cc2c1=O,i
CC(=C(Cl)Cl)C(Br)=C(Br)CO,i
CC[n+]1ccccc1C=Cc1ccc(N(C)C)cc1,i
CC(=O)Nc1ccc(S(=O)(=O)NC2C(C)(C)C3CC[C@]2(C)C3)cc1 (stereo not given in full),i
CC(C)(C)CC(C)(C)Nc1c(-c2ccccc2OC(=O)c2ccc([N+](=O)[O-])cc2)nc2ccccn12,i
COc1cc(CNc2ccc(N3CCCCC3)cc2)ccc1OCc1ccccc1F,i
CCOC(=O)C(=CNc1ccccc1[N+](=O)[O-])C(=O)OCC,i
CCN(c1ccc(OC)cc1)S(=O)(=O)c1ccc(C)cc1,i
COC(=O)c1ccc2c(=O)n(Cc3ccco3)c(SCC(=O)n3nc(N)cc3C)nc2c1,i
COc1ccc(NC(=O)CCCCCn2c(SCC(=O)c3ccccc3)nc3ccsc3c2=O)cc1,i
Cc1cccc(C)c1N(CC(=O)NCc1ccco1)S(C)(=O)=O,i
CCCNC(=O)CCCCCSc1nc2ccccc2c(=O)n1-c1ccc(F)cc1,i
COc1ccc(C2CC(=O)C3=C(C2)NC(C)=C(C(=O)OC2CCCC2)C3c2ccc(OC)cc2)cc1 (stereo not given),i
Cc1ccc(-c2nc3cc(NC(=O)c4ccc([N+](=O)[O-])o4)ccc3o2)cc1Br,i
COc1ccc(OC)c(-c2ccc(O)c(CNCC3CCCCC3)c2)c1,i
O=C1C(NC2CCCC2)=C(N2CCCCC2)C(=O)c2ccccc21,i
COC(=O)c1ccc(C2C3=C(CC(c4ccc(C)cc4)CC3=O)Nc3ccccc3N2C(=O)c2cccs2)cc1 (stereo not given),i
CCCCCCCCCCOC(=O)Cn1c(C)[n+](C)c2ccccc21,i
CC(=O)Nc1ccc(NS(=O)(=O)c2cc([N+](=O)[O-])ccc2Cl)cc1,i
COC(=O)C1=C(C)NC2=C(C(=O)CC(c3ccccc3)C2)C1c1ccc(Cl)cc1 (stereo not given),i
CCN(CC)C(=O)c1cn(C2CCN(C(=O)CCc3cccc(OC)c3)CC2)nn1,i

A portion of the library; count on the stated rates, not on these rows.
